High-throughput results as filed in PubChem BioAssay.
OX1R antagonist = OX1R (HCRTR1) antagonists, primary screen, fluorescence, CHO/OX1R cells, Fluo-8 calcium, orexin A | actives 0.43% (n = 330,000) | inhibition, % at 5 µM | AID 434989, 2010 | Fluo-8 calcium fluorescence | Orexin/Hypocretin receptor type 1 (Homo sapiens), O43613;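 active = inhibition above its plate's threshold, mean inhibition of all tested compounds on the plate plus 3 SD, cut at about 37% in these data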;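 also: 0% = orexin A challenge wells and 100% = SB-334867-A antagonist wells; not every result past the cut was called active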
Target sequence (O43613 whole entry, looked up): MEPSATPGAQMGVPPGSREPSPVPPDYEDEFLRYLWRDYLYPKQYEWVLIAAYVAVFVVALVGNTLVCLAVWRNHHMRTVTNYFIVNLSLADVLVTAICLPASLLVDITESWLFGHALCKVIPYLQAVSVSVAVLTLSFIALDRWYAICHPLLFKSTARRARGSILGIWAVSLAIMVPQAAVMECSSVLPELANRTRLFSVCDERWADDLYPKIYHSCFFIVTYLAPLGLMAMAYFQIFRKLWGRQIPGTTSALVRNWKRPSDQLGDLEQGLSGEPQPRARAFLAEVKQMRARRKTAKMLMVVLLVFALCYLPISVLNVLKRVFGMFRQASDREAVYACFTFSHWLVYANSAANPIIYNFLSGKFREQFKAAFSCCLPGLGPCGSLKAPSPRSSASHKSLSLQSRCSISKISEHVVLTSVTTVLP
Starred values were filed as active, the others as inactive. Some of the compounds tested; most or all hits stand in other tables.

Start of the listing, in advance, two compounds:
compound	OX1R antagonist
CC(C)Oc1ccc(C(=O)N2CCCc3ccccc32)cc1	-27
Clc1ccc(-c2ccc(CNCC3CCCO3)o2)cc1 (centres undefined)	-23

Main list, from the start:
compound	OX1R antagonist
CC(C)Oc1ccc(C(=O)N2CCCc3ccccc32)cc1	-27
Clc1ccc(-c2ccc(CNCC3CCCO3)o2)cc1 (centres undefined)	-23
CCCOc1cccc(/C=N/NC(=O)c2csc(C)c2C)c1	-18
COC(=O)Cc1n[nH]c(=O)c2ccccc12	-7
Cc1ccc(C(=O)COc2ncnc3cc(Cl)ccc23)cc1	-27
COc1ccc2c(CC(=O)OCC(=O)NC(=O)c3cccn3C)coc2c1	-15
Cn1c(N)c(C(=O)Nc2ccc(-c3ccccc3)cc2)sc1=S	-14
O=C(CSc1nc(-c2ccco2)cc(C(F)(F)F)n1)Nc1cccnc1	-28
O=C(Nc1ccccc1F)N1CCCC1c1cccnc1 (centres undefined)	-14
CC(Sc1ccccn1)C(=O)Nc1ccc(S(N)(=O)=O)cc1 (centres undefined)	-9

Exported with values ahead of the structure: entries from further up
OX1R antagonist	mol
-23	Clc1ccc(-c2ccc(CNCC3CCCO3)o2)cc1 (centres undefined)
-18	CCCOc1cccc(/C=N/NC(=O)c2csc(C)c2C)c1
-7	COC(=O)Cc1n[nH]c(=O)c2ccccc12

Carrying on.
compound	OX1R antagonist
Nc1nc2nccc(-c3cccnc3)n2n1	-11
O=C(NNC(=O)c1nn(-c2ccc(F)cc2)ccc1=O)c1ccc(C(F)(F)F)cc1	-6
CCOC(=O)N1CCC(N(CCN(C)C)C(=S)Nc2cccc(OC)c2)CC1	-10
O=C(CSCCO)Nc1ccccc1	-4
Cc1nnc(NC(=O)CSc2nnc(CCc3nc4ccccc4[nH]3)n2C)s1	-10
O=C(NCc1ccco1)c1nnc(Cc2ccc(F)cc2)o1	-17
CCn1c(Cc2ccc(OC)cc2)nc2ccccc21	1
Cc1ccc(S(=O)(=O)NNC(=O)c2ccc(F)cc2)cc1	0
NC(=O)C1CCN(CC(=O)Nc2nc(-c3ccccc3)cs2)CC1	-6
Cc1c(NC(=O)c2ccccc2)c(=O)n(-c2ccccc2)n1C	-5
Cc1oc(C(C)(C)C)c(CN2CCOCC2)c1C(=O)O	-10
O=C(COc1ccc2ccc(=O)oc2c1)N1CC[C@@]2(O)CCCC[C@H]2C1	-29
FC(F)(F)c1cnc(N2CCSCC2)c(Cl)c1	-10
COc1ccc(N2CCN(c3nc4ccccc4nc3NS(=O)(=O)c3ccccc3)CC2)cc1	-16
Cn1cnnc1SCc1ccc(C(=O)n2ncc(C#N)c2N)cc1	-18
COc1ccc(Cl)cc1C(=O)NNC(=O)CSc1nnnn1C	-22
COc1ccc(C(=O)NC(CC(=O)O)c2cc([N+](=O)[O-])ccc2Cl)c(SC)c1 (centres undefined)	-10
CCN(CC)c1ccc(NC(=O)CCc2nnc3ccc(N4CCCCC4)nn23)c(C)c1	-11
CC1CC1C(=O)Nc1nc2ccc(S(C)(=O)=O)cc2s1 (centres undefined)	10
Cc1ccc2nc(SCC(=O)c3ccc(Cl)cc3)nc(=O)n2c1	-16
COCC(C)NC(=O)Cc1ccc(F)cc1 (centres undefined)	-7
N#Cc1ccc2ccn(CC(=O)NCc3ccccc3)c2c1	6
Cc1ccc2nc(N3CCN(c4cccc(C)c4C)CC3)c3nnnn3c2c1	-18
O=C(NNC(=S)NCc1ccccc1)c1ccccc1OC(F)F	-4
CCCNS(=O)(=O)c1ccc(OCC(=O)N2CCCC2)cc1	-18
O=C(CCN1C(=O)c2ccncc2C1=O)NCc1ccc(Cl)cc1	-5
COC(=O)c1[nH]c(C)c(/C(O)=C2\C(=O)C(=O)N(CCN(C)C)C2c2cccc(OC)c2OC)c1C (centres undefined)	3
COc1nc(N)nc(NC(=O)c2cccs2)c1N=O	-4
Cc1cnc(C(=O)Nc2ccc(F)c(F)c2)cn1	-1
Cc1cc(C)cc(Oc2cc(NC(=O)c3cn(C)nc3C)cc([N+](=O)[O-])c2)c1	-7
OCCc1c[nH]c2ccc(OCc3ccccc3)cc12	12
CCOc1ccccc1C(=O)NCC(=O)OCc1c(C)noc1C	-19
Cc1ccc(CCN2CC(C(=O)NCCN(C)C)CC2=O)cc1 (centres undefined)	-7
COC(=O)c1sc(N)c(C(=O)OC)c1COC(=O)CNS(=O)(=O)c1ccc(C)cc1	-11
COc1ccc(C(=O)CC(=O)C(=O)Nc2ccccc2)cc1	-6
O=C(CSc1nc2ccccc2[nH]1)NC1CCCC1	-20
Cc1cccn2c(=O)c3cc(S(=O)(=O)c4ccccc4)c(=N)n(Cc4cccnc4)c3nc12	-14
CCCCOC(=O)n1c(=O)oc2cc(S(=O)(=O)N3CCCCC3)ccc21	-5
CS(=O)(=O)N(CC(=O)Nc1ccccc1C(=O)N1CCOCC1)c1cccc(F)c1	-22
CCC(C)(NC(=O)c1ccc2c(c1)OCO2)C(=O)NC1CCCCC1 (centres undefined)	-13
c1ccc(Nc2ccccn2)nc1	-6
COCCn1c(C(F)(F)F)ccc(NC(=O)c2ccccc2)c1=O	-17
CCOC(=O)c1c(C)c(C(=O)NCc2cccs2)c(C)n1CC	-27
c1csc(-c2cnc3ccccc3n2)c1	5
CC(NS(=O)(=O)c1ccc(Cl)cc1)C(=O)Nc1ccc2c(c1)OCCO2 (centres undefined)	-6
O=C(CCSCc1ccccc1F)NCc1ccc(F)cc1	-17
CC[C@H](C)[C@@H](CNC)NC[C@@H](Cc1ccc(O)cc1)NCC(C)(C)C	-31
CC(C)OC(=O)CN1CCN(c2ccc(Cl)cc2)CC1	1
Cc1nc2ccccn2c1C(=O)NN=C1CCN(C)CC1	-16
O=c1cc(CN2CCN(c3ccccc3)CC2)c2c(ccc3ccccc32)o1	-35

Next structures follow:
compound	OX1R antagonist
COc1cccc(NC(=O)c2cc(OC)c(OC)c(OC)c2Br)c1	-21
O=C(O)C1CSC(c2ccncc2)N1 (centres undefined)	-9
COc1ccc2c(c1)CCc1cn[nH]c1-2	-7
CCc1cc(=O)oc2cc(OCC(=O)NCCCn3ccnc3)ccc12	-20
CCOc1ccccc1N1CCN(CC(=O)Nc2nc(C)c(C(=O)N(C)C)s2)CC1	-1
Cc1cc(C)nc(SCc2cn3ccccc3n2)n1	-15
CCCc1cc(=O)[nH]c(SCC(=O)c2c(N)n(C)c(=O)n(C)c2=O)n1	8
S=C(NCc1cccs1)Nc1cccc2ccccc12	-21
Cc1cc(=O)oc2ccc(OC(=O)c3cccc(S(=O)(=O)N4CCOCC4)c3)cc12	-34
NC(C(=O)O)C(c1ccccc1)C(F)F (centres undefined)	3
O=C(COc1ccccc1)Nc1ncc2c(n1)CCCC2=O	-24
COc1ccccc1-c1nnc2sc(C3CCCCC3)nn12	-13
COc1ccc(-n2c(SCC(=O)N3CCOCC3)nc(O)c(Cc3ccccc3)c2=O)cc1	-11
O=C1c2ccccc2NC(c2ccc(-c3cccc(Cl)c3)o2)N1O (centres undefined)	-38
O=C1NN(c2ccc(Br)cc2)C(=O)/C1=C\c1ccc(O)cc1O	-20
CCC(=O)Nc1ccc(NC(=S)NC(=O)c2cc3ccccc3o2)cc1	-11
CCCc1nnc(SCC(=O)Nc2cc(C)on2)n1CCOC	-19
CCC(C(=O)OCC(=O)N(C)c1c(N)n(Cc2ccccc2)c(=O)[nH]c1=O)c1ccccc1 (centres undefined)	-22
O=C(Nc1cccnc1Cl)c1cccc(F)c1	-15
CN(C)c1ccc(C2NCCS2)cc1 (centres undefined)	-8
Cc1ccc(NC(=O)N2CCCC2C(=O)Nc2c(C)cc(C)cc2C)cc1 (centres undefined)	-16
N/C(=N\O)c1ccc(Cl)cc1Cl	-8
O=C(O)c1ccc(C2SCC(=O)N2Cc2ccco2)cc1 (centres undefined)	-1
CCCOC(=O)CCCN1C(=O)/C(=C2\SC(=S)N(CCCC(=O)OCCC)C2=O)SC1=S	-15
O=C(Nc1cccnc1)c1ccc(N2CCCC2)c([N+](=O)[O-])c1	-27
CN(C)S(=O)(=O)c1cccc(C(=O)Nc2cccnc2)c1	-15
Cc1ccc(S(=O)(=O)N(C)CC(=O)N2CCN(c3ccccn3)CC2)cc1	-38
CCOCCCNC(=O)C1CCN(S(=O)(=O)N2CC(C)CC(C)C2)CC1 (centres undefined)	-12
Nc1nc(Cl)cc(Sc2ccc(F)cc2)n1	-7
CC(=O)Nc1c2c(nn1-c1ccccc1C)CSC2	9
CCCCC(C)n1[nH]c(=O)cc1N (centres undefined)	-1
Cc1nc(C(F)(F)F)ccc1C(=O)Nc1ccccc1F	-8
OCCN1c2ccccc2CCc2ccccc21	-9
Cc1sc2nc(SCC(=O)NCc3ccco3)n(-c3ccccc3)c(=O)c2c1C	-15
CCOc1ccc(CC(C(N)=O)C(N)=O)cc1	-6
Nc1cc(=O)[nH]c(SCC(=O)c2ccc(O)cc2O)n1	8
O=C(C1COc2ccccc2O1)N1CCN(Cc2ccc3c(c2)OCO3)CC1 (centres undefined)	-5
CCC(C)(C)NC(=O)C(c1cccc(OC)c1OC)N(Cc1ccc(OC)cc1)C(=O)CCC(=O)Nc1cc(C)on1 (centres undefined)	-37
O=C(Nc1ccc(S(=O)(=O)N2CCCC2)cc1)C1CCCCC1	8
COc1cc(OC)cc(C(=O)NCc2ccc3[nH]c(C)cc3c2)c1	-13
COc1ccc(C2/C(=C(/O)c3ccc(F)cc3)C(=O)C(=O)N2CCCN2CCOCC2)cc1OC (centres undefined)	-13
CCOC(=O)C1Cc2ccccc2CN1 (centres undefined)	-20
CC(OC(=O)CCCC(=O)Nc1ccccc1)C(=O)c1ccccc1 (centres undefined)	-20
O=C(OCc1ccc(F)cc1)c1cc2ccccc2cc1O	-19
Cc1ccc(C2=NS(=O)(=O)N(C)C(C(=O)NCc3ccc(F)cc3)=C2)cc1	-20
Cc1ccc(S(=O)(=O)NC(=NC2CCCCC2)c2ccccc2)cc1	-20
COc1ccc(C(=O)c2ccccc2Cl)cc1OC	-24
CS/C(=N\S(=O)(=O)c1cccs1)Nc1ccc(F)cc1	-18
Cc1cc(C)c2c(-n3cccc3)nn(C)c2n1	-25
O=C(NC1CCCCC1)C1CCN(C(=O)c2ccccc2Cl)CC1	-20

New compounds follow
compound	OX1R antagonist
Cc1cc(OCCN2CCOCC2)ccc1[N+](=O)[O-]	-5
CCCCOc1cccc(C(=O)NC(=S)Nc2cccnc2)c1	-28
CC(=O)Nc1ccc(S(=O)(=O)N2CCCN(S(=O)(=O)c3ccc(NC(C)=O)cc3)CC2)cc1	-7
O=C(COc1ccc(Br)cc1)NCCCNC(=O)c1ccncc1	-11
COc1ccc(Cc2noc(-c3ccccc3)n2)cc1OC	-26
Cc1ccccc1CSc1nc2[nH]ncc2c(=O)[nH]1	2
CCOc1ccc(-c2nnc(NC(=O)CCCOc3cccc(C)c3)o2)cc1	-21
CCOc1ccccc1Nc1cc(C)c2cccc(C)c2n1	-34
Cc1ccc(N(C)C(=O)N2CCN(S(=O)(=O)c3c(C)cc(C)cc3C)CC2)cc1	-46
O=C(Nc1c(-c2ccccc2)nc2ccccn12)c1cccs1	-15
Cc1cccc(NCc2ccc(O)c3ncccc23)c1C	-4
O=C(Nc1cc2c(cc1C(=O)O)OCCCO2)c1ccc(C(F)(F)F)cc1	-2
O=[N+]([O-])c1ccc(C2Nc3cccc4cccc(c34)N2)cc1	-12
C#CCOCCOCCOCCNc1nc(N2CCN(C(=O)[C@H]([C@@H](C)O)n3cc(CCCCN)nn3)CC2)nc(N2CCN(C(=O)[C@H](CCCCN)n3cc(CCCC)nn3)CC2)n1	3
COc1ccc(NC(=O)NNC(=O)c2cc3ccccc3cc2O)cc1	7
CCn1c(SCC(=O)Nc2cccc(OC)c2)nnc1-c1ccc(Cl)cc1	-18
CCOC(=O)C1(Cc2cccc(Cl)c2)CCCN(C(=O)c2ccco2)C1 (centres undefined)	-20
C=CCN1C(=O)C(CC(=O)O)SC1=Nc1ccc(N=Nc2ccccc2)cc1 (centres undefined)	2
O=C(CN(CCc1ccccc1)S(=O)(=O)c1ccc(Br)cc1)N/N=C/c1ccccc1C(=O)O	-35
CCc1ccc2c(CN(C)Cc3ccc(OC(F)F)c(OC)c3)cc(=O)oc2c1	-21
CCc1cc2c(SCC(=O)NC(=O)c3cccn3C)ncnc2s1	2
COc1ccc(/C(N)=N/OC(=O)c2ccco2)cc1	-6
CN(C(=O)c1ccc(OC2CCN(CCc3ccccc3)CC2)cc1)C1CCOC1 (centres undefined)	-21
Cc1ccc(Nc2ccc(C(N)=O)cc2[N+](=O)[O-])cc1	-11
COc1cc(NC(=O)CSc2ccc(-c3cccnc3)nn2)cc(OC)c1	-13
CCCCCC1CCC(c2ccc(C(N)=O)cc2)CC1 (centres undefined)	-6
Cc1ccc(C(=O)NC(=S)Nc2ccccc2C(F)(F)F)cc1C	-37
CSc1nnc([C@H](C)NC(=O)OC(C)(C)C)o1	-7
NC(=O)c1ccccc1NS(=O)(=O)Cc1ccccc1	-6
CC(=O)C(=Cc1ccc(C(=O)O)cc1)C(C)=O	-1
Cc1ccc(OCc2nnc(SCc3ccc(C#N)cc3)n2-c2ccc(C)cc2)cc1	-7
Cc1cc(C)c2c(N)c(C(=O)N3CCc4ccccc4C3)sc2n1	-19
CCOc1ccc(C(=O)CSc2nnc(N)s2)cc1	-32
Cc1nc(N2CCOCC2)nc(N2CCCCC2C)c1[N+](=O)[O-] (centres undefined)	-27
